NPYLR7 agonist – activates Aedes aegypti NPYLR7 receptor; AID 1259423; 270,000 compounds, 0.15% hits; HEK293T NPYLR7/Galpha15, GCaMP6s calcium fluorescence; activation, % at 10 µM; in the data active = activation above about 40%;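 note: 0% = vehicle and 100% = reference agonist at the receptor; some compounds past the cut are filed as inactive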
NPYLR7 agonist max-min – also measured in NPYLR7 agonist; calls as there; activation, %; measured here: Max-Min RFU normalised activation; some inactives read as strong as hits;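 span of the calcium signal over five minutes; 0% = vehicle and 100% = native peptide agonist; compound fluorescence can raise it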
* marks the source's active call; other numbers are inactive results; & = joins results of further samples. Only part of the results is shown; count on the stated rates, not on these rows.

SMILES | NPYLR7 agonist | NPYLR7 agonist max-min
O=C1c2c(O)ccc(O)c2C(=O)c2c(NCCNCCO)ccc(NCCNCCO)c21 | -5&-11&-3&3 | -10&-14&-9&-26
CCCCN(CCCC)CCCOC(=O)c1ccc(N)cc1 | -8&1 | -14&-6
CCOc1nc2cccc(C(=O)O)c2n1Cc1ccc(-c2ccccc2-c2noc(=O)[nH]2)cc1 | -3 | -10
CCN1CCN(c2ccc(Nc3cc(N(C)C(=O)Nc4c(Cl)c(OC)cc(OC)c4Cl)ncn3)cc2)CC1 | -1 | -7
CC[C@]12CCCN3CCc4c(n(c5ccccc45)[C@](O)(C(=O)OC)C1)[C@@H]32 | -6&-2 | -10&-6
CNC(=O)c1cc(COc2nnc(Nc3ccc(Cl)cc3)c3ccoc23)ccn1 | -6 | -10
CCn1cc(C(=O)O)c(=O)c2cc(F)c(N3CCNC(C)C3)c(F)c21 (centres undefined) | -5&-4&4&-3 | -5&-9&-54&-5
COC(=O)C1=C(C)NC(C)=C(C(=O)OCCN2CCN(C(c3ccccc3)c3ccccc3)CC2)C1c1cccc([N+](=O)[O-])c1 (centres undefined) | -24 | -31
CC(C)(C)NCC(O)COc1cccc2c1C[C@H](O)[C@H](O)C2 (some centres undefined) | -12&10 | -15&0
CC(=O)N[C@@H](Cc1ccccc1)C(=O)O | 3 | 8
CC(=O)OCC(=O)[C@@]1(O)CC[C@H]2[C@@H]3CCC4=CC(=O)C=C[C@]4(C)[C@@]3(F)[C@@H](O)C[C@@]21C | -3 | -7
CCC(=O)Nc1cccc(Oc2nc(Nc3ccc(N4CCN(C)CC4)cc3OC)ncc2Cl)c1 | -5 | -7
Cc1cc(Nc2cc(N3CCN(C)CC3)nc(/C=C/c3ccccc3)n2)n[nH]1 | -8 | -14
COc1cc(CCc2cc(NC(=O)c3ccc(N4C[C@@H](C)N[C@@H](C)C4)cc3)n[nH]2)cc(OC)c1 | -6 | -6
CCC1(O)CC2CN(CCc3c([nH]c4ccccc34)[C@@](C(=O)OC)(c3cc4c(cc3OC)N(C)C3[C@]45CCN4CC=C[C@@](CC)([C@@H](OC(C)=O)[C@]3(O)C(=O)OC)[C@H]45)C2)C1 (some centres undefined) | 3 | -30
OCCCNc1nc(Nc2ccccc2)c2cnn(-c3ccccc3)c2n1 | 0 | -3
C#C[C@]1(O)CCC2C3CCC4=CC(=O)CC[C@@H]4C3CCC21CC (some centres undefined) | -5 | -11
CN(C)C/C=C(\c1ccc(Br)cc1)c1cccnc1 | 0 | -3
COc1cc(N)c(Cl)cc1C(=O)N[C@@H]1CCN(CCCOc2ccc(F)cc2)C[C@@H]1OC | -11 | -16
C[C@@H]1C[C@H]2[C@@H]3CCC4=CC(=O)C=C[C@]4(C)[C@@]3(Cl)[C@@H](O)C[C@]2(C)[C@@]1(OC(=O)c1ccco1)C(=O)CCl | -5 | -13
Nc1ncnc2c1c(-c1ccc(Oc3ccccc3)cc1)cn2C1CCCC1 | -4 | -14
Cc1nc(N2CCN(c3ccccn3)CC2)nc2c1C(=O)CC(c1ccccc1)C2 (centres undefined) | 3 | 2
CCOC(=O)[C@H](CCc1ccccc1)N[C@@H](C)C(=O)N1C(=O)N(C)C[C@H]1C(=O)O | -3 | -8
CC(C)(C)NCC(O)COc1cccc2c1CC(O)C(O)C2 (centres undefined) | -1 | -5
CN(c1nccc(=O)[nH]1)C1CCN(c2nc3ccccc3n2Cc2ccc(F)cc2)CC1 | -8 | -11

Nothing new here: an excerpt of the list.
SMILES | NPYLR7 agonist | NPYLR7 agonist max-min
CC(C)(C)NCC(O)COc1cccc2c1CC(O)C(O)C2 (centres undefined) | -1 | -5
CN(c1nccc(=O)[nH]1)C1CCN(c2nc3ccccc3n2Cc2ccc(F)cc2)CC1 | -8 | -11

Next entries.
SMILES | NPYLR7 agonist | NPYLR7 agonist max-min
CCc1cc2c(cc1N1CCC(N3CCOCC3)CC1)C(C)(C)c1[nH]c3cc(C#N)ccc3c1C2=O | -6 | -10
CN(C)CCCSc1ccccc1NC(=O)/C=C/c1ccccc1 | -11 | -17
O=C(O)c1ccc(-n2nc(-c3ccccc3O)nc2-c2ccccc2O)cc1 | -7 | -12
CCCCOc1cc(C(=O)OCCN(CC)CC)ccc1N | -6&-2 | -2&-7
Cn1ccc2cc3c(cc21)CCN3C(=O)Nc1cccnc1 | 5 | -34
O=C(O)c1ccc(Nc2ncc3c(n2)-c2ccc(Cl)cc2C(c2c(F)cccc2F)=NC3)cc1 | -8 | -13
COCCOc1ccc2c(c1)ncn2-c1ccc2cccc(N3CCC(N)CC3)c2n1 | -4 | -10
CC1(C)O[C@@H]2C[C@H]3[C@@H]4C[C@H](F)C5=CC(=O)C=C[C@]5(C)[C@@]4(F)[C@@H](O)C[C@]3(C)[C@]2(C(=O)CO)O1 | -3 | -9
O=C(Nc1cccc(Cl)c1)Nc1ncc(CCNc2ncnc3ccsc23)s1 | 1 | -2
CC(C)CCCC(C)NCCC(C)C (centres undefined) | 19 | 15
C=Cc1ccccc1 | 0 | -8
Cc1cc(=O)oc2cc(O)ccc12 | 2 | -3
COc1cc(N)c(Cl)cc1C(=O)N[C@H]1CCN(CCCOc2ccc(F)cc2)C[C@H]1OC | 1 | 0
O=C(O)C1Cc2ccccc2CN1 (centres undefined) | 4 | 1
CCCCC(=O)O[C@]1(C(=O)CO)[C@@H](C)CC2C3CCC4=CC(=O)C=C[C@]4(C)[C@@]3(F)C(O)C[C@@]21C (some centres undefined) | 2 | -3
CC(C)NNC(=O)c1ccncc1 | -4&-5&1&1 | -11&-7&-3&8
COc1cc2nccc(Oc3ccc(NC(=O)C4(C(=O)Nc5ccc(F)cc5)CC4)cc3)c2cc1OC | -12 | -16
CNS(=O)(=O)CCc1ccc2[nH]cc(C3CCN(C)CC3)c2c1 | -6 | -9
CCN(CCCCOC(=O)c1ccc(OC)c(OC)c1)C(C)Cc1ccc(OC)cc1 (centres undefined) | -12&2 | -16&2
O=C(O)c1cc(=O)c2ccccc2o1 | 0&-10 | -3&-15
Cc1nnc(-c2ccc3occ(-c4ccc(S(C)=O)cc4)c3c2)o1 (centres undefined) | -21 | -26
COc1ccc(-c2cc(C(F)F)nn2-c2ccc(S(N)(=O)=O)cc2)cc1F | -1 | -12
Cc1ncc(-c2ccnc(Nc3ccc(S(C)(=O)=O)cc3)n2)n1C(C)C | 3 | -7
Nc1c2ccccc2nc2ccccc12 | 2&-9 | 1&-17
CCc1cccc(CC)c1NC(=O)CN(CC(=O)O)CC(=O)O | -4 | -10
(more compounds)
SMILES | NPYLR7 agonist | NPYLR7 agonist max-min
COc1cc2nccc(Oc3ccc(NC(=O)NC4CC4)c(Cl)c3)c2cc1C(N)=O | -9 | -15
COC(=O)C=C(C)N | 3 | 6
O=C(CCN1CCN(CCO)CC1)N1c2ccccc2Sc2ccc(C(F)(F)F)cc21 | -14 | -23
CCCOc1ccc2nc(NC(=O)OC)[nH]c2c1 | -9 | -20
Nc1ncnc2c1c(-c1cccc(OCc3ccccc3)c1)cn2C1CC(CN2CCC2)C1 (centres undefined) | -7 | -13
Cc1scc2c1N(C(=O)CN1CCN(C)CC1)c1ccccc1NC2=O | -1&-1&2&-1 | -5&-6&0&6
Cc1c(C(=O)Nc2ccc(N3C[C@@H](C)O[C@@H](C)C3)nc2)cccc1-c1ccc(OC(F)(F)F)cc1 | -3 | -12
Cn1cc(-c2ccc3nnc(Sc4ccc5ncccc5c4)n3n2)cn1 | -7 | -13
c1cn2cc(-c3ccc4cn[nH]c4c3)nc(Nc3ccc(N4CCOCC4)cc3)c2n1 | 3 | -3
N=c1nc(N2CCCCC2)cc(N)n1O | -4&-11&-10&-1&3 | -6&-14&-18&-2&-33
CCN(CC)CC1CCCCN1CC(=O)N1c2ccccc2C(=O)Nc2cccnc21 (centres undefined) | -2 | -5
COCC(=O)NC/C=C/c1ccc2ncnc(Nc3ccc(Oc4ccc(C)nc4)c(C)c3)c2c1 | -5 | -9
COC(=O)N/N=C\c1c[n+]([O-])c2ccccc2[n+]1[O-] | -1 | -9
Cc1ccccc1OCC(O)CO (centres undefined) | -9&16 | -11&13
COc1ccc(C(=O)c2ccccc2)c(O)c1 | -7&-2 | -16&-4
CC1(C)CC(=O)c2c(C(F)(F)F)nn(-c3ccc(C(N)=O)c(NC4CCC(O)CC4)c3)c2C1 (centres undefined) | 3 | -5
CN(C)CC/C=C1/c2ccccc2COc2ccc(CC(=O)O)cc21 | -3 | -4
CNCc1ccc(-c2[nH]c3cc(F)cc4c3c2CCNC4=O)cc1 | 1 | -5
Cc1cc(Cn2cnc3c2C[C@@H](C(=O)O)N(C(=O)C(c2ccccc2)c2ccccc2)C3)ccc1N(C)C | -13&0 | -14&-5
CS(=O)(=O)c1ccc(-c2cn3ccccc3n2)cc1 | -21 | -32
CC(Cc1cccc(C(F)(F)F)c1)NCCOC(=O)c1ccccc1 (centres undefined) | -15&-4&-1 | -17&-8&-8
CC[C@@H]1OC(=O)C[C@@H](O)[C@H](C)[C@@H](O[C@@H]2O[C@H](C)[C@@H](O)[C@H](N(C)C)[C@H]2O)[C@@H](CCN2C[C@H](C)C[C@H](C)C2)C[C@@H](C)C(=O)/C=C/C(C)=C\[C@@H]1CO[C@@H]1O[C@H](C)[C@@H](O)[C@@H](OC)[C@H]1OC | -9 | -14
CCN(CC)CCOc1ccc(Cc2ccccc2)cc1 | 6 | -4
CN(C)C(=O)c1cc2cnc(Nc3ccc(N4CCNCC4)cn3)nc2n1C1CCCC1 | -1 | -8
COc1cc(NC(=O)c2cc(F)cc(F)c2)cc(OC)c1OC | 6 | 3
(next part)
SMILES | NPYLR7 agonist | NPYLR7 agonist max-min
CN[C@@H]1[C@H](O)[C@H](NC)[C@H]2O[C@@]3(O)C(=O)C[C@@H](C)O[C@H]3O[C@@H]2[C@H]1O | -6&3&-1&0 | -11&0&-7&0
CC(C)(Cc1ccc2ccccc2c1)NC[C@@H](O)COc1cccc(Cl)c1C#N | -5 | -8
CCCCOCCOC(=O)c1cccnc1 | 23 | 19
COc1ccc(-c2oc3c(CC=C(C)C)c(O[C@@H]4O[C@H](CO)[C@@H](O)[C@H](O)[C@H]4O)cc(O)c3c(=O)c2O[C@@H]2O[C@@H](C)[C@H](O)[C@@H](O)[C@H]2O)cc1 | -9&5 | -13&-3
CCCOc1ccc(C(=O)OCCN(CC)CC)cc1N | -7&19&3 | 0&5&-1
CNC(=O)c1cc(Oc2ccc(NC(=O)Nc3ccc(Cl)c(C(F)(F)F)c3)c(F)c2)ccn1 | -10 | -17
O=C(O)Cc1cn(-c2ccccc2)nc1-c1ccc(Cl)cc1 | -11 | -26

Random excerpt: three entries already listed, in no set order.
SMILES | NPYLR7 agonist | NPYLR7 agonist max-min
O=C(O)Cc1cn(-c2ccccc2)nc1-c1ccc(Cl)cc1 | -11 | -26
CC(C)(Cc1ccc2ccccc2c1)NC[C@@H](O)COc1cccc(Cl)c1C#N | -5 | -8
COc1ccc(-c2oc3c(CC=C(C)C)c(O[C@@H]4O[C@H](CO)[C@@H](O)[C@H](O)[C@H]4O)cc(O)c3c(=O)c2O[C@@H]2O[C@@H](C)[C@H](O)[C@@H](O)[C@H]2O)cc1 | -9&5 | -13&-3

Entries of single compounds from above. Order of screens: NPYLR7 agonist	NPYLR7 agonist max-min
COc1ccc(-c2cc(C(F)F)nn2-c2ccc(S(N)(=O)=O)cc2)cc1F across the screens: -1	-12
CCCCOCCOC(=O)c1cccnc1 across the screens: 23	19
CC1(C)O[C@@H]2C[C@H]3[C@@H]4C[C@H](F)C5=CC(=O)C=C[C@]5(C)[C@@]4(F)[C@@H](O)C[C@]3(C)[C@]2(C(=O)CO)O1 across the screens: -3	-9
CCCCC(=O)O[C@]1(C(=O)CO)[C@@H](C)CC2C3CCC4=CC(=O)C=C[C@]4(C)[C@@]3(F)C(O)C[C@@]21C (some centres undefined) across the screens: 2	-3
COC(=O)C1=C(C)NC(C)=C(C(=O)OCCN2CCN(C(c3ccccc3)c3ccccc3)CC2)C1c1cccc([N+](=O)[O-])c1 (centres undefined) across the screens: -24	-31

Screens from PubChem BioAssay.
